# TRPML1 blocker: inhibitors of human TRPML1 channel; Q9GZU1; TRPML1-inducible cells, Ca2+ dye fluorescence, FDSS; stronger effect = lower value; inhibition of EC80 agonist-evoked calcium signal; activity change, negative = inhibition, % (test concentration not listed); 0.02% of 390,000 active; in the data active means activity change below about -50%; inconclusive means about -30% to -50%; inactive means above about -30%;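 note: stimulus is agonist 54-4 at its EC80 concentration; % is set by controls: 0 for no effect and ±100 for the full control effect; compound concentration not given in the record; the text of the record puts the active cut at -80%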
#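 Tet-induced TRPML1-DL cells loaded with Ca8 no-wash calcium dye were read kinetically on FDSS. Compound addition was followed by EC80 agonist 54-4 (4 uM final); inhibition was read over 110 s.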
# PINK1 expr mod: PINK1 expression modulation; PINK1 immunofluorescence, high-content cytometry, 24 h; 0.2% of 410,000 active; Potency, µM (series often up to 76.6 µM), for inactives: at the highest dose activation (PINK1 increase), most hits filed as activators; active = well fitted activation curve with a large enough effect; inconclusive = small, poorly fitted or top-dose-only effect; inactive = flat fitted curve, though single readings scatter; cell line not stated here;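 note: potency is the fitted concentration of half-maximal effect; % of control where 0% means no effect; nearly all actives have a fitted effect of over 65% in size; a mitochondrial uncoupler was the plate control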
#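 PINK1 protein level read as immunofluorescence by microplate cytometer in a fixed, stained stable cell line after 24 h exposure to five compound concentrations, with CCCP as control.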
# Sfp PPTase inh: Sfp phosphopantetheinyl transferase inhibition; Potency, µM, without a hit: max response, negative = inhibition, hits mostly inhibitors; Biochemical Sfp PPTase activity, qHTS; Q9F4F7; 3.5% of 310,000 active; AID 1490; active = well fitted inhibition curve with a large enough effect; inconclusive = small, poorly fitted or top-dose-only effect, or another doubt; inactive = no such curve, though single readings can be large or run the other way;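 note: the enzyme is Sfp with the accession as filed and its product quenches rhodamine fluorescence; potency is the fitted concentration of half-maximal effect; 0% = enzyme reaction without inhibitor and -100% = no enzyme wells; top concentration of the series not given in the record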
#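 Step 1, compound plus 15 nM Sfp-PPTase, 15 min, room temperature. Step 2, add rhodamine-CoA (5 uM) and BHQ-2-YbbR (12.5 uM). Step 3, read 525/598 nm fluorescence at 0 and 30 min.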
# TRPV1 potentiator: potentiators of human vanilloid receptor 1 (TRPV1); Q8NER1; TRPV1-expressing cells, Fluo-8 calcium influx, capsaicin EC20 potentiation; host cell line not named in the record; control for the full effect not named in the record; potentiation, % at 8.33 µM; AID 540277; 0.02% of 320,000 active; active means potentiation above 80%; inconclusive means 30% to 80%; inactive means below 30%; note: 0% is about no effect
# Target sequence (Q8NER1 whole entry, looked up): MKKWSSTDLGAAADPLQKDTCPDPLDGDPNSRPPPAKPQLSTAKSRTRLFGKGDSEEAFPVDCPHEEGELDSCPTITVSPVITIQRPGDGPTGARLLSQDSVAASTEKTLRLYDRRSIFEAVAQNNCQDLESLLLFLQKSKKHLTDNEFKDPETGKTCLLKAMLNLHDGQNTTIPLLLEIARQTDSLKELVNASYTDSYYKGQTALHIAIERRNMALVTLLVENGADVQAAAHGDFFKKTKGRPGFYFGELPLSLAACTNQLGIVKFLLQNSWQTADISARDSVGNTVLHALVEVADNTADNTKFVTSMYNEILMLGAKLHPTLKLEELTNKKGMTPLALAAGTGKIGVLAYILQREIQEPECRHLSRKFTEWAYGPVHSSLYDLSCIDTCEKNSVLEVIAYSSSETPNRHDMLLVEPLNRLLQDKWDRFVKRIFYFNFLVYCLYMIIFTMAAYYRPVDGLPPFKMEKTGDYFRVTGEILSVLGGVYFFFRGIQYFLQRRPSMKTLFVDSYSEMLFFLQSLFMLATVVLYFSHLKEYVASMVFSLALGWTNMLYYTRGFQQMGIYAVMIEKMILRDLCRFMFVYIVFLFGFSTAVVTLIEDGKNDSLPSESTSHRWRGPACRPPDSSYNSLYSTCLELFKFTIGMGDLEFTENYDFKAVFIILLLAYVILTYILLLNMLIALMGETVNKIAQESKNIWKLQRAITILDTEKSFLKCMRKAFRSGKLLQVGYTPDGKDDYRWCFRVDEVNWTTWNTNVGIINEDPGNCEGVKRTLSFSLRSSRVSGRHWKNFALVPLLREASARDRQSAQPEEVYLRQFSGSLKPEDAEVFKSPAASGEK
#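 TRPV1-expressing cells were cultured overnight at 35.5C and loaded with Fluo-8 calcium dye for 40 to 90 min at room temperature. After a 10 s baseline, compound was added and calcium influx was read kinetically for 3 min (ex 480/em 520 nm).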
# Menin MLL FP FL: menin-MLL binding inhibition, fluorescein peptide; Fluorescence polarization, fluorescein-MLL peptide displacement from menin; FP activity change, % at 61.4 µM; 290,000 tested, under 10 active; AID 1766; inconclusive = falling polarisation curve, or a change in total fluorescence; inactive = total fluorescence flat and polarisation flat or rising; no compound was filed as active; the % refers to the polarisation; negative = inhibition;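 note: % of control where 0% means no effect; inhibitors lower the polarisation; unlabelled MLL peptide was the positive control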
# TRPML1 agonist: human mucolipin-1 channel agonism. Q9GZU1. TRPML1-expressing cells, Ca2+ dye fluorescence, FDSS; host cell line not named in the record; reference of the full effect not given here. activation, % (test concentration not listed). 0.12% of 410,000 active. AID 624414; in the data active = activation above about 50%; inconclusive = about 30% to 50%; inactive = below about 30%; note: 0% is about no effect; the text of the record puts the active cut at 80%
#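 Agonist activity was taken from a 110 s kinetic Ca2+ dye read on the FDSS after pinning compounds onto TRPML1-DL cells. The cells were seeded at 1,500/well with Tet inducer, incubated about 16 h, then dye-loaded at room temperature.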
# ClpP mod: qHTS Assay for Activators of ClpP; ATP-dependent Clp protease proteolytic subunit (Bacillus subtilis (strain 168)), P80244; purified B. subtilis ClpP, FRET peptide cleavage, 20 min; Potency, µM (highest dose often 57.5 µM), for the others: at the top dose activity change, negative = active; 1.9% of 340,000 active; AID 651965, 2013; active = well fitted falling curve with a large enough effect; inconclusive = small, poorly fitted or top-dose-only effect; inactive = no such curve, though single readings can be large or run the other way; note: potency is the fitted concentration of half-maximal effect; the source files actives as falling curves though it sought activators and does not explain the sign; nearly all actives have a fitted effect of over 65% in size; many hits overshoot -100%
# Target sequence (P80244 whole entry, looked up): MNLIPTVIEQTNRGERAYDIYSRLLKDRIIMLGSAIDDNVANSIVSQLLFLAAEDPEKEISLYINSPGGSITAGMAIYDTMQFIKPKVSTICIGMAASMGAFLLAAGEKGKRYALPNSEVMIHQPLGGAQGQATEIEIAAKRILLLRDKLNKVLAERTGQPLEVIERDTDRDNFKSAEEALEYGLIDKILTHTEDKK
#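 ClpP 10 microg/mL final, pH 8 Tris/KCl buffer with BSA, glycerol, Tween-20; compound pinned in; FRET-FV substrate; RT 20 min; Ex320/Em430; ΔFRET vs ADEP 5.8 microM, DMSO, no enzyme.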
# * hit, by the source's call; ? = inconclusive; · = no result given; & = joins results of further samples; [ ] = dose if it differs, or a comment.
SMILES,TRPML1 blocker,PINK1 expr mod,Sfp PPTase inh,TRPV1 potentiator,Menin MLL FP FL,TRPML1 agonist,ClpP mod
Cc1ccc(C(=O)ONc2ccc(N=NC(=O)c3ccccc3O)cc2)cc1,-10.5,1.3%,?,7.2,-3.4,-0.1,-1.6%
CCn1c(SC)nnc1C1CCCN(CC(=O)Nc2ccccc2N2CCOCC2)C1 (stereo not drawn),-11.4,1.7%,-6.4%,4.6,-0.6,-1.6,-0.4%
CCOC(=O)c1ccc(NC(=S)NCCCN2CCCCC2)cc1,-2.8,-2.4%[38.3 µM],5.7%,?,5.4,1.0,-1.2%
CCOc1ccc(CCNC(=O)CN2CCN(Cc3ccccc3F)C2=O)cc1OCC,-7.5,0.2%,10.4%,10.4,1.7,2.6,-8.6%
CC(C)Sc1ncc(Cl)c(C(=O)Nc2nnc(C(C)C)s2)n1,35.5,1.8%,·,·,·,0.8,0.6%
O=S1(=O)CCC(n2nccc2-c2ccccc2)C1 (stereo not drawn),-22.9,-0.2%,2.4%,5.5,-1.2,0.9,·
CCOc1ccc(NC(=O)CSc2nc(O)c(C)c(=O)n2-c2ccc(F)cc2)cc1,14.5,-0.6%,16.1%,-3.6,-0.5,-0.8,·
CCOC1(/N=C(\C)NS(=O)(=O)c2ccc(Cl)cc2)C(C)=CC(=O)C=C1C,5.2,-1.0%,14.0%,6.0,-6.4,-0.4,·
N#Cc1cccc2c1-c1ccccc1/C2=N/NC(N)=S,26.4,-2.9%,-26.1%,0.2,1.7,-0.9,0.5%
Cc1csc(NC(=O)CCn2c(=O)oc3ccc(Cl)cc32)n1,-5.7,-1.0%,2.8%,?,·,-1.1,-1.0%
CCOc1ccc(NC(=O)Cn2nnc(-c3ccccc3F)n2)cc1,-9.7,-2.5%[38.3 µM],5.6%,4.6,1.6,-0.3,0.5%
Brc1cccc(CN2CCCCCCC2)c1,-5.7,6.7%[38.3 µM],-2.4%,-0.8,-2.2,1.1,-0.2%
COCCn1cnc2c(c1=O)c1nc3ccccc3nc1n2/N=C/c1cccc(OC)c1,12.7,-1.7%,3.1%,·,-2.4,2.3,·
COc1ccc(S(=O)(=O)N2CCOCC2)cc1NC(=O)COC(=O)CCS(=O)(=O)c1ccc(C)cc1,1.8,1.2%,·,·,·,1.1,3.1%
O=c1[nH]c(C2CCN(S(=O)(=O)c3ccccc3F)CC2)nc2c1nnn2Cc1ccc(F)cc1,2.1,5.4%,-6.1%,1.4,5.4,0.6,-2.5%
COc1ccc(C2C(=O)N(C3CCCCC3)CC(=O)N2C2CCCCC2)cc1 (stereo not drawn),-0.9&-5.5,1.2%,-1.2%,-15.5,2.8,0.7&-0.3,-2.1%&-0.7%
NC(=O)CCS(=O)(=O)CCN1CCCCC1,1.9,1.7%,6.5%,2.1,-0.2,0.7,-2.6%
CC(C)c1ccc(Nc2ncnc3c2nc2n3CCCC2)cc1,12.6,?,·,·,·,1.8,-1.0%
Cc1cc(N2CCCC2)nc2c(C)cccc12,6.7,8.1%,-6.4%,14.0,-0.3,-0.5,·
CCc1ccc2oc(C(=O)NC3CCS(=O)(=O)C3)cc(=O)c2c1 (stereo not drawn),18.8,-1.3%,17.3%,6.7,-5.1,0.2,-9.9%
O=C(O)c1ccccc1C(c1ccccc1)c1ccccc1O (stereo not drawn),22.5,0.8%,·,·,·,-1.1,·
COc1cccc(CNc2nnnn2C)c1,7.5,1.5%,16.5%,-7.3,-0.9,-0.1,-2.1%
CO/N=C(\Cn1ncc(N2CCCC2)c(Br)c1=O)c1ccc(Cl)cc1,21.9,-0.8%,89.1µM*,0.7,3.6,1.6,1.7%
CC(Oc1ccccc1F)C(=O)/C=C/N(C)C (stereo not drawn),-2.0,1.5%[38.3 µM],14.8%,-1.9,0.2,-0.2,-2.9%
Cc1nn(Cc2cccc(C(=O)NN)c2)c(C)c1Cl,-12.3,2.7%,19.9%,-1.0,2.6,0.1,0.2%
O=C1CCCC(=O)C1C1c2ccccc2CCN1C(=O)CCl (stereo not drawn),1.2,-2.4%,3.6%,4.9,2.4,0.1,-10.8%
O=C(NCCc1ccccc1)C1CC(=O)N(c2ccc3c(c2)OCCO3)C1 (stereo not drawn),10.2,1.4%,·,-8.2,·,-0.7,?
O=C(Nc1ccccc1F)Nc1cccc2ccc(O)cc12,9.1,-1.2%,-24.1%,-44.9,4.2,0.3,3.9%
COCCCNc1nc(=S)[nH]c2cc(OC)c(OC)cc12,-2.7,-0.8%,?,-0.3,1.0,-1.0,-1.6%
CC1CCN(C(CNS(=O)(=O)c2ccccc2)c2ccccc2)CC1 (stereo not drawn),1.7,-0.7%,·,-7.3,·,-0.2,-2.5%
COc1ccc(CCN2CCCC(CN(C)Cc3cc(Cl)c(O)c(OC)c3)C2)cc1 (stereo not drawn),-7.4,-1.1%,-3.4%,7.8,-0.7,-0.1,0.9%
COc1ccnc(CN(C)C(=O)C2CCC(=O)N(Cc3cccc(C(F)(F)F)c3)C2)c1 (stereo not drawn),-11.1,0.2%,8.0%,2.9,-2.9,1.2,1.6%
COc1ccccc1NC(=O)/C=C\c1ccco1,·,-0.3%,56.2µM*,-5.2,?,·,-0.3%
C=CCN(c1ccccc1OC)S(=O)(=O)c1cccc(C(=O)NC2=NCCS2)c1,7.4,0.1%,·,·,·,0.9,2.4%
CC(=O)Nc1ccc(NCC(=O)c2ccccc2)cc1,2.9,5.0%,-1.4%,3.1,0.0,1.3,-1.1%
C=CCC1(O)C(=O)Nc2ccccc21 (stereo not drawn),-9.1,0.1%,14.7%,-23.2,2.6,1.1,-2.9%
CN(C)c1nc(N)nc(CSc2nnnn2C)n1,8.7,0.4%,16.3%,-2.0,0.2,-0.6,0.1%
Cc1cc(C)n(C(=O)c2cccc(S(=O)(=O)N3CCCCC3)c2)n1,13.2,0.1%,-1.8%,-46.9,-0.9,0.1,-3.9%
Cc1ccc(-c2csc(N3CCN(CCCn4c(-c5ccncc5)nc5ccccc54)CC3)n2)cc1,-3.1,0.2%,-21.9%,-2.1,-0.4,3.1,-5.3%
Cc1ccc(NC(=O)CNCc2cccs2)c(Br)c1,-9.6,2.0%,4.5%,-7.6,-6.4,-0.1,0.9%
CC(=O)N1CCc2cc(S(=O)(=O)CCC(=O)N3CCN(c4ccccn4)CC3)ccc21,-13.3,-1.1%,10.3%,-1.2,0.1,2.4,?
CCOCCCNC(=O)c1ccccc1OC1CCN(S(C)(=O)=O)CC1,-1.6,-0.1%,1.9%,1.4,0.2,0.3,-0.6%
CC(C)CN(C1CCS(=O)(=O)C1)S(=O)(=O)c1ccc(C(C)C)cc1 (stereo not drawn),6.1,-2.9%,·,0.9,·,0.0,·
Cc1noc(C)c1-c1nc(N2CCOCC2)c2ccccc2n1,·,2.0%,-13.3%,·,2.8,·,·
COc1ccc(C)cc1NC(=O)CN(C)S(=O)(=O)c1cnc[nH]1,-3.4,2.8%[38.3 µM],-1.9%,-0.1,0.1,0.6,-3.4%
C#Cc1cccc(NC(=O)CSc2nnc(-c3ccc(C(F)(F)F)cn3)o2)c1,-18.2,-0.8%,-28.5%,19.8,1.6,0.2,0.5%
COC(=O)CCn1cnc2onc(-c3cc(F)cc(F)c3)c2c1=O,27.3,0.2%,·,·,·,-0.5,-1.1%
CCN1CCCC1CNC(=O)Cn1ncc2c(=O)oc3ccc(C)cc3c21 (stereo not drawn),3.0,2.0%,11.4%,13.9,2.7,0.1,-2.4%
COc1ccc(C(F)(F)F)cc1N/C=C/c1nnnn1-c1ccc2ccccc2c1,16.0,2.8%,3.6%,-1.6,3.3,-0.2,-2.3%
COc1ccc(CNC(=O)c2ccc(Br)o2)cc1,-6.4,1.0%,-15.8%&-0.5%,-9.3,-0.8[94.6 µM],-0.5,-3.2%

# (list continues)
SMILES,TRPML1 blocker,PINK1 expr mod,Sfp PPTase inh,TRPV1 potentiator,Menin MLL FP FL,TRPML1 agonist,ClpP mod
O=S(=O)(c1cc(C(F)(F)F)ccc1Cl)N1CCN(c2ncnc3ccccc23)CC1,-4.3,0.9%,·,5.5,·,2.3,2.1%
CN(C)CCNC(=O)c1cccc(-c2cccc3nncn23)c1,0.6,-0.7%,·,·,·,0.0,4.9%
O=C(Nc1cccc(O)c1)c1noc2c1CCc1ccccc1-2,-10.7&-5.4,2.8%,-33.3%,-18.1,3.2,-0.8&-0.1,19.8%&-8.9%
CC(C)(C)N(Cc1nc(-c2ccccc2)no1)C(=O)c1ccc2c(c1)OCO2,-8.8,6.4%,0.6%,-9.3,6.5,3.7,·
O=C(O)C1C2C=CC(C2)C1C(=O)N1CCc2ccccc21 (stereo not drawn),-5.4,-1.1%,-5.0%,·,3.9,-0.3,1.0%
CCOCCc1nnc(NC(=O)CSc2ccccc2)s1,-9.0,-0.3%,9.7%,-3.0,-1.6,-0.5,-1.0%
COC(=O)CCCC(=O)N1CCCC(CNS(=O)(=O)c2ccc(OC)cc2)C1 (stereo not drawn),1.0,0.6%,16.9%,-11.4,1.1,-0.5,1.6%
Cc1cccc(C)c1Cn1c(C)c(C(=O)NCc2ccc(C#N)cc2)sc1=O,·,1.1%,·,·,·,4.0,-2.3%
Clc1ccc(CSc2nncn3c2cc2occc23)cc1,15.7,0.8%,·,·,·,1.1,-5.3%
COCCNC(=O)C(OC(=O)c1ccco1)c1ccccc1F (stereo not drawn),-3.5,1.4%,19.2%,-8.6,1.7,-0.7,0.7%
Clc1ccc(-c2csc3ncnc(Sc4nnnn4-c4ccccc4)c23)cc1,·,-1.0%,·,·,·,0.4,-13.5%
C#CCN(C(=O)c1ccc(OC)c(OC2CCN(C(C)C)CC2)c1)C1CCCCC1,-6.7,-1.0%,11.4%,5.8,·,0.0,0.6%
O=C(NCCc1ccccc1)C(=O)NCC1(c2ccccc2)CCCC1,-6.2,·,15.0%,-6.3,-0.9,-0.2,-0.4%

# Looked up above:
# `CCOCCCNC(=O)c1ccccc1OC1CCN(S(C)(=O)=O)CC1` in TRPML1 blocker shows -1.6
# `COc1ccccc1NC(=O)/C=C\c1ccco1` in Sfp PPTase inh shows 56.2µM*

# Screening data (PubChem)
